Source: PubChem BioAssay
CDC25B CDK2 inh: primary biochemical HTRF screen for blockers of M-phase inducer phosphatase 2 binding to CDK2/cyclin A; P30305+P24941; HTRF CDC25B-CDK2/CyclinA binding, anti-His/anti-Flag; stronger effect = higher value; z-score (concentration not given with the values); 0.72% of 94,000 active;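 note: score is relative to mean and SD of negative controls; strong numbers were not always called active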
HIV TAR-Tat: TAR RNA-Tat peptide displacers, HIV-1, primary screen, biochemical, FRET, FAM/TAMRA-labeled Tat | AID 1259389, 2018 | z-score (no concentration beside the values) | HIV-1 TAR RNA, Tat peptide displacement FRET; stronger effect = higher value | 0.6% of 100,000 active;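 note: score is relative to mean and SD of negative controls; some compounds called inactive have numbers as strong as hits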
* hit, by the source's call; . = no result given.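 Rule for the calls: active = z-score from 3 up in half or more of its runs; inactive = the rest.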

Results follow in this order: CDC25B CDK2 inh | HIV TAR-Tat
O=C(CCCN1C(=O)c2cccnc2Oc2ccc(Cl)cc21)NCc1ccco1
→ . | 0.57
CC1CC(=O)Nc2cc(S(=O)(=O)Nc3ccc4c(c3)OCO4)ccc2S1 (stereo not drawn)
→ . | -0.27
CCOC(=O)CC(=O)CSc1ccc2nnc(-c3ccc(Cl)cc3)n2n1
→ -0.61 | .
COc1ccc(/C=C/C(=O)Nc2nc(-c3ccccc3)cs2)cc1Br
→ -13 | .
O=C(NCc1ccco1)C1CCN(c2nc3ccc(Br)cc3s2)CC1
→ -1.9 | 3.6
Cc1ccccc1Cn1c(C)c(C2CCN(S(C)(=O)=O)CC2)c2ccccc21
→ . | 0.98
CCNc1nc(Nc2ccc(C)c(C)c2)c2cnn(C)c2n1
→ . | 1.4
O=C(c1cnc2n(c1=O)CCS2)N(c1ccccc1)C1CCCCC1
→ -0.07 | .
CCOC(=O)N1CCN(c2cc(=O)n(-c3ccc(Cl)cc3)c(=O)[nH]2)CC1
→ . | 1.4
Cc1nn(-c2nncc(-c3ccccc3)n2)c2c1C(c1ccccc1)CC(=O)N2 (stereo not drawn)
→ -1.4 | 0.32
C=CCn1c(=O)c2ccc(C(=O)NCc3ccc4c(c3)OCO4)cc2n(Cc2ccccc2F)c1=O
→ -0.29 | -0.51
COc1ccc(OCCC(=O)NNC(=O)/C=C/c2ccc3c(c2)OCO3)cc1
→ -1.5 | .
CCCCC(CC)n1[nH]c(=O)cc1N (stereo not drawn)
→ -1.3 | -0.1
CS(=O)(=O)c1ccc(-c2ccc(NS(=O)(=O)c3ccc(Cl)cc3)cc2)nn1
→ . | -0.89
O=C(NCCOC(=O)c1c(F)cccc1Cl)c1c(F)cccc1Cl
→ -1 | .
C=CCOC(=O)C1=C(C)Nc2[nH]c(=O)[nH]c(=O)c2C1c1ccc(C#N)cc1 (stereo not drawn)
→ 0.07 | .
CC1CCC(NC(=O)C2CCCN(C(=O)c3cc4sccc4n3C)C2)CC1 (stereo not drawn)
→ -2.2 | 0.7
COc1ccc(-c2nc3c(c(=O)[nH]2)Cc2ccccc2O3)cc1OC
→ 0.33 | 1.2
Cc1cc(=O)oc2cc(NC(=O)c3nccnc3C(=O)O)ccc12
→ -1.6 | .
CC(C)OCCCNc1ncnc2sc3c(c12)CCCC3
→ 0.54 | 1.9
Cn1c(-c2ccc3c(c2)OCO3)cn2cc(-c3ccc(Cl)cc3)nc12
→ -1.6 | 2.5
CN1C(=O)c2ccccc2C(C(=O)Nc2ccccn2)C1c1cccs1 (stereo not drawn)
→ -2.1 | -0.49
O=S(=O)(c1ccc2c(c1)OCCO2)N1CCC(c2nc3ccccc3s2)CC1
→ -1.4 | 0.97
CCCCCCCCCc1ccc(OCCOCCOCCOCCOCCOCCOCCOCCOCCO)cc1
→ . | -0.51
Cc1ccc(S(=O)(=O)N2CCCC(c3nc(-c4cccc(Br)c4)no3)C2)cc1C (stereo not drawn)
→ . | 0.92
CCOC(=O)c1c(-c2ccccc2)oc2cc(Br)c(OC(C)=O)cc12
→ -1.8 | .
O=C(CSc1nccn(-c2cccc(F)c2)c1=O)Nc1ccc(Cl)cc1F
→ -0.6 | -0.16
COC(=O)CN1C(=O)C2(SC(NC(C)=O)=NN2C(C)=O)c2cc(C)cc(C)c21 (stereo not drawn)
→ -0.65 | .
Cc1ccc(C)c(S(=O)(=O)Nc2cc(Cl)c3oc(=O)sc3c2)c1
→ -2.9 | 5.8
O=C(O)c1ccc(S(=O)(=O)c2ccc(Cl)cc2)nc1
→ 0.07 | -0.09

2 neighbouring compounds out of the list so far, for reference:
Results follow in this order: CDC25B CDK2 inh | HIV TAR-Tat
O=C(CCCN1C(=O)c2cccnc2Oc2ccc(Cl)cc21)NCc1ccco1
→ . | 0.57
CC1CC(=O)Nc2cc(S(=O)(=O)Nc3ccc4c(c3)OCO4)ccc2S1 (stereo not drawn)
→ . | -0.27

Carrying on:
Results follow in this order: CDC25B CDK2 inh | HIV TAR-Tat
CCCc1ccc(OC(=O)CSc2nnc(-c3cccs3)o2)cc1
→ 1.1 | 0.23
Cc1ccc(Nc2nc(N)nc(CSc3nc(C)cc(C)n3)n2)cc1
→ 1.2 | 1.6
C=CCSc1ncc(Cl)c(C(=O)Nc2c(C(=O)Nc3ccc(OC)cc3)oc3ccccc23)n1
→ -0.49 | 1.4
CCC1c2ccc(C)n2CCN1C(=O)Nc1ccc(Br)cc1 (stereo not drawn)
→ -1.9 | -9.5
Cc1c2cnn(CC(=O)O)c(=O)c2c(C)n1Cc1ccc(F)cc1
→ -1.6 | 1.3
Cc1ccc(S(=O)(=O)Nc2ccc(-c3ccc(S(C)(=O)=O)nn3)cc2)c(C)c1
→ . | 0.51
CCN1CCN(C(=O)CCCn2c(=O)c3cccn3c3cccnc32)CC1
→ . | -0.32
Cc1ccc(-c2nc(SCCCOc3ccccc3)n3[nH]c(=O)cc3n2)cc1
→ . | -0.05
CCC1(C)Cc2c(sc3nc(SCC(=O)Nc4cccc(Cl)c4)nc(N)c23)CO1 (stereo not drawn)
→ -2 | -0.44
Cc1sc2ncnc(Oc3ccc(F)cc3)c2c1C
→ . | -0.13
O=C(CCn1c(=O)[nH]c2ccsc2c1=O)N1CCc2ccccc2C1
→ 0.99 | .
O=C(Nc1ccc(F)cc1)c1nnc(C2CCN(C(=O)NC3CCCC3)CC2)s1
→ . | 1.4
CCOC(=O)N1c2ccccc2Sc2ccccc21
→ -1.1 | 1.4
CC(C)(C)c1ccc(OCc2nnc(-c3ccccc3)o2)cc1
→ -0.54 | 0.28
C=CCn1c(CCCN2C(=O)c3cccc4cccc(c34)C2=O)nnc1SCC(=O)O
→ -2.4 | .
COC(=O)C(C)Nc1n[nH]c(=O)[nH]c1=O (stereo not drawn)
→ -1.4 | 1.6
COC(=O)c1ccc(-c2n[nH]c(=O)c3ccccc23)cc1
→ 0.2 | 1.8
COC(=O)c1ccc([C@@H]2Nc3c(C)cccc3[C@@H]3C=CC[C@@H]32)cc1
→ -0.2 | -0.13
CCCNC(=O)c1noc(C)c1Cn1nc(C)cc1C
→ . | -0.47
O=C(Nc1ccc2nc3n(c(=O)c2c1)CCCC3)NC1CCCC1
→ . | 0.32
S=c1nc[nH]c2c1cnn2-c1ccc(Cl)cc1
→ -2.6 | 2.3
Nc1cccc(-c2nc3ccccc3[nH]2)c1
→ -0.87 | 2.3
CC1CCCN(C(=O)CSC2=NS(=O)(=O)c3ccccc3N2)C1 (stereo not drawn)
→ . | 1.1
CCn1nc(C)c(CNC(=O)NC(C)C)c1C
→ . | -0.15
CCc1cc2c3c([nH]c2cc1S(=O)(=O)N1CCN(C)CC1)CCCC3=O
→ . | 1.2
O=C(Nc1ccc(F)cc1)C(=O)c1cn(CC(=O)N2CCCC2)c2ccccc12
→ . | 1.6
CC(C)(C)c1csc(NC(=O)c2ccc3c(c2)OCCO3)n1
→ . | 1.5
CC1CCCCC1NC(=O)C1(C)Cn2c(cc3occc32)C(=O)N1c1ccc(Cl)cc1 (stereo not drawn)
→ . | 7.6*
CCCN(CCC)CCNC(=O)c1c(C)oc2ncnc(N3CCOCC3)c12
→ -1 | -0.92
O=C(CSc1nc2ncccc2[nH]1)NC1CCCCC1
→ -1.3 | 1.2
CCOC(=O)c1cc(CC)sc1NC(=O)Cn1c(=O)sc2ccccc21
→ 0.28 | 0.88
Cn1c(=O)c2c(c3ccccc31)OC(=O)CC2c1ccc(F)cc1 (stereo not drawn)
→ -0.65 | -0.34
CC(=O)Nc1cccc(Oc2c(F)c(F)c(F)c(F)c2F)c1
→ -1.2 | .
O=C(CSc1nccn1C1CCCCC1)Nc1cccc(F)c1
→ . | 0.96
Cc1ccc(C2=NS(=O)(=O)N(C)C(C(=O)NC(C)(C)C)=C2)cc1
→ -1.4 | 1.6
Cc1nc(C(F)(F)F)ccc1C(=O)Nc1oc(-c2ccccc2)cc1C#N
→ -1.3 | .
CC(C)C(=O)N(c1ccc2oc(=O)sc2c1)S(=O)(=O)c1ccccc1
→ -3.1 | -0.52
COC(=O)c1ccccc1NC(=O)c1ccccc1
→ -1.1 | .
NC(N)=NCCCCN=C(N)N
→ -0.6 | 3.1
O=S(=O)(NCCc1nnc2ccc(SCc3ccccc3)nn12)c1ccccc1
→ . | 2.7
COc1ccc(NC(=O)c2oc3ccccc3c2NC(=O)c2nn(-c3ccc(F)cc3)ccc2=O)cc1
→ 0.15 | -1.1
COc1ccc(C2NN=C(c3ccc(C)cc3)S2)cc1OC (stereo not drawn)
→ -1.2 | -0.57
C[n+]1cn(CC(O)COCC2CC=CCC2)c2ccccc21 (stereo not drawn)
→ -0.07 | .
CCCn1c(=O)c2sccc2n2c(CCCC(=O)N3CCN(c4ncccn4)CC3)nnc12
→ . | -0.67
Cn1c(=O)c2c(nc(Oc3ccc(F)cc3)n2Cc2ccc(F)cc2)n(C)c1=O
→ -2.4 | -0.39
COc1ccc(OCc2nc3ccc(Cl)cc3[nH]2)cc1
→ 2 | 1.3
O=S(=O)(Cc1ccccc1)N1CCN(Cc2noc3ccccc23)CC1
→ . | 2.2
O=C(O)CNC(=O)c1c(F)cccc1Cl
→ -1.5 | .
CCOC(=O)c1c(NC(=O)c2cc(=O)c3cc(C)c(C)cc3o2)sc2c1CCCC2
→ -1.6 | -1.4
O=C1CC(c2ccccc2F)c2cc3c(cc2N1)OCCO3 (stereo not drawn)
→ -3.1 | .
CC(C)CCNC(=O)Cn1ncc2c([nH]c3ccccc32)c1=O
→ . | -1.2
Cn1nc(C(=O)N2CCN(c3ccccc3F)CC2)c2c1-c1ccsc1CC2
→ . | -0.49
O=C1NN(C(=O)Nc2ccc(Br)cc2)[C@@H](c2ccccc2)[C@@H]1c1ccccc1
→ -1.4 | .
COc1ccc(C2C(C#N)=C(N)Oc3n[nH]c(-c4ccc5c(c4)OCO5)c32)cc1 (stereo not drawn)
→ -3.1 | .
Cc1c(S(=O)(=O)N2CCCN(C(=O)OC(C)(C)C)CC2)cnn1-c1ccccc1
→ -0.67 | .
Cc1noc2ncnc(N(C)Cc3ccccc3)c12
→ . | -1.8
CCOCCCNC(=O)NC(C)c1c(-n2cccc2)sc2c1CCCC2 (stereo not drawn)
→ -1.5 | -0.23
Cc1cc(N2CCN(c3ccccc3)CC2)n2nnnc2n1
→ -1.8 | .
O=C(c1ccc(CS(=O)c2ccccc2)o1)N1CCN(c2cccc(Cl)c2)CC1 (stereo not drawn)
→ 0.34 | -0.21
CC(C)OCCCNS(=O)(=O)c1ccc2c(c1)NC(=O)C(C)CS2 (stereo not drawn)
→ . | 0.68

Profiles as entered above. Order of values: CDC25B CDK2 inh	HIV TAR-Tat
Listed for COc1ccc(NC(=O)c2oc3ccccc3c2NC(=O)c2nn(-c3ccc(F)cc3)ccc2=O)cc1 : 0.15	-1.1
Listed for NC(N)=NCCCCN=C(N)N : -0.6	3.1
Listed for Cc1noc2ncnc(N(C)Cc3ccccc3)c12 : .	-1.8
Listed for Cc1nc(C(F)(F)F)ccc1C(=O)Nc1oc(-c2ccccc2)cc1C#N : -1.3	.

Additional results:
Results follow in this order: CDC25B CDK2 inh | HIV TAR-Tat
O=c1cc(-c2cccs2)oc2ccccc12
→ -1.7 | .
Cc1nc(N(C)C)ncc1C(=O)Nc1ccc2c(c1)OCCO2
→ . | 1.8
O=C(COc1ccccc1)Nc1c(Cl)ccc2nsnc12
→ -1.7 | 0.17
CCOC(=O)CN1NC2(CCCCCCC2)NC1=S
→ -0.25 | .
O=C(NC1CCS(=O)(=O)C1)c1ccc(Br)cc1 (stereo not drawn)
→ -1.4 | 3.3
CCc1nnc(SCC(=O)Nc2ccc(Cl)cc2F)c2cc3oc(C)cc3n12
→ . | -0.58
O=C(C1CCCN(S(=O)(=O)c2cccs2)C1)N1CCN(C2CCCCC2)CC1 (stereo not drawn)
→ -1.4 | .
Cc1ccccc1-c1noc(-c2nnn(-c3cccc(C)c3C)c2N)n1
→ . | -1.2
O=S(=O)(CCSc1nccc(-c2cccs2)n1)c1ccc(Cl)cc1Cl
→ 0.59 | .
CCCN(CCC)S(=O)(=O)c1ccc2c(c1)CCCC(=O)N2
→ . | -0.37
CCCCOc1ccc(C2c3c(oc4ccccc4c3=O)C(=O)N2c2nncs2)cc1 (stereo not drawn)
→ -0.71 | 1.6
COc1cc(OC)cc(N2C(=O)CCC2(C)C(=O)NC2CCCC2)c1 (stereo not drawn)
→ -2.9 | -2
CCSc1nnc(NC(=O)c2cc(S(=O)(=O)N3CCCC3)cn2C)s1
→ . | 2
Cc1nn(-c2ccc3nnc(C)n3n2)c2c1C(c1ccc(OCc3ccc(Cl)cc3)cc1)CC(=O)N2 (stereo not drawn)
→ . | 2.2
CC(N)C(=O)N1CCc2ccccc21 (stereo not drawn)
→ . | 0.88
CC1CC(C)(C)OC(c2ccccc2)O1 (stereo not drawn)
→ -1.8 | .
O=C(NCc1ccco1)C1CCC(CNS(=O)(=O)c2cccc3cccnc23)CC1 (stereo not drawn)
→ -0.56 | -0.91
O=C(CCCn1c(=O)[nH]c2ccsc2c1=O)N1CCN(c2ccc(F)cc2)CC1
→ 0.4 | .
CCOC(=O)Cc1cn2ccc3ccccc3c2n1
→ -4.8 | .
COc1ccc2[nH]c3c(c(=O)c2c1)CCCC3
→ -1.8 | -1.1
COc1ccc(CC(=O)N2CCN(c3ncccn3)CC2)cc1OC
→ -0.88 | .
CC1CCCN(c2nnc(NC(=O)Nc3ccc(Br)cc3F)s2)C1 (stereo not drawn)
→ -1.1 | -0.74
CC(C)Nc1nn2nnnc2c2ccccc12
→ . | 1.8
Cc1sc2ncnc(NCc3ccc(F)cc3)c2c1C
→ -1.9 | 3.7
CCCc1nnc(NC(=O)c2nn(-c3ccc(OCC)cc3)ccc2=O)s1
→ 0.03 | 0.26
O=C(NCc1ccco1)C1CCN(C(=O)N2CCOc3ccc(Cl)cc32)CC1
→ . | 1.9
CC1CCCN(c2nc(N)c([N+](=O)[O-])c(N3CC(C)OC(C)C3)n2)C1 (stereo not drawn)
→ . | 0.43
Cn1nc(C(=O)N2CCN(c3cccc(Cl)c3)CC2)c2c1-c1ccsc1CC2
→ . | 0.34

Compounds were not picked by outcome. About 0.89% of those tested had a hit in this group.
